Source: PubChem BioAssay (several laboratories)
CBX7 AlphaScr: inhibitors of human CBX7 binding to H3K27me3 peptide | O95931 | AlphaScreen His6-CBX7 / biotin-H3K27me3 peptide binding; stronger effect = lower value | normalised signal (fraction of DMSO) (no concentration beside the values) | 66,000 compounds, 1.1% hits | AID 1224903; in the data active = normalised signal below about 0.5;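 note: 100 nL library stock added to about 20 µL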
Target sequence (O95931 whole entry, looked up): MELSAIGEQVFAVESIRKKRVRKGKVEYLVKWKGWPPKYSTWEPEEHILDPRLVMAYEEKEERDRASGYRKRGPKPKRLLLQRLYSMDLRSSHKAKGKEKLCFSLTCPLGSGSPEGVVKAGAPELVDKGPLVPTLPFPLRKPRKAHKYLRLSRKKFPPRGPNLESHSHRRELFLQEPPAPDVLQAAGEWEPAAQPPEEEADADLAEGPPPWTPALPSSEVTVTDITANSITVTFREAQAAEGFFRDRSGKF
CBX7 AlphaScr z-score: also measured in CBX7 AlphaScr; calls as there; z-score; measured here: z-score of CBX7 signal; some inactives read as strong as hits; reference of the scale not given here;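 same signal on another scale; lower means less binding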
An asterisk follows results filed as active; & = joins results of further samples. A portion of the library; rates above refer to the full screens.

SMILES	CBX7 AlphaScr	CBX7 AlphaScr z-score
COC(=O)c1cc2ccsc2n1CC(=O)Nc1cc(OC)cc(OC)c1	0.931	-2.03
CC(C)C(C)(NC(=O)c1cccnc1Oc1ccc(F)cc1)C(N)=O (configuration not stated)	1.05	0.586
O=C(c1cn(-c2ccccc2)nc1C12CC3CC(CC(C3)C1)C2)N1CCNCC1	0.935	-0.773
CCCCOc1ccc(C(C)NC(=O)CC2Sc3ccccc3NC2=O)cc1 (configuration not stated)	0.93	-1.32
c1ccc2c(-c3nc4ccccn4c3Nc3ccc4c(c3)OCO4)c[nH]c2c1	0.966	-0.328
COc1ccc(-c2nnc(-c3ccc(OC)cc3)o2)cc1	1.17	2.65
Cc1ccc(N(CC(=O)Nc2ccc3c(c2)OCCO3)S(=O)(=O)c2c(C)noc2C)cc1	0.896	-0.867
COC(CNC(=O)C1CCC(=O)N1Cc1ccc(C)cc1)OC (configuration not stated)	1.07	1.32
CCN1C(=O)c2ccccc2S(=O)(=O)c2ccc(C(=O)N3CCC4(CC3)OCCO4)cc21	1.02	0.673
CC(C)NC(=O)c1ccc2c(c1)N(Cc1ccccc1)C(=O)c1ccccc1S2	1.03	0.259
COc1ccc2c(c1)CCc1c(C(=O)Nc3ccc(C)c(C)c3)noc1-2	0.89	-1.12
O=C(O)CNc1ncnc2ccccc12	0.986	-0.276
O=C1c2[nH]nc(-c3ccccc3)c2C(c2ccc3c(c2)OCO3)N1c1ccccc1 (configuration not stated)	0.899	-5.22
O=C(Nc1ccc(-c2nc3ccccc3s2)cc1)c1ccccc1	0.99	-0.108
COc1cc(OC)c(NC(=O)CCc2c(C)nc3c(-c4ccccc4)c(C)nn3c2C)cc1Cl	1.16	1.74
Cc1cccc(OCc2nc(-c3cccnc3)no2)c1C	1.03	0.735
Cc1cc(NC2(c3nnnn3-c3c(C)cccc3C)CCCCC2)no1	1	0.0796
O=C(COc1ccc(-c2nnc(NCc3ccccc3)c3ccccc23)cc1)N1CCCCC1	1.09	0.968
CC1CCN(S(=O)(=O)c2ccc3ncn(CC(=O)N4CCCCC4C)c(=O)c3c2)CC1 (configuration not stated)	1.44	3.95
CCOC(=O)c1c(NC(=O)c2cc(Cl)ccc2OC)sc2c1CCCCC2	1.04	0.607
FC(F)(F)c1cc(-c2cccs2)nc(-n2cnc3ccccc32)n1	0.98	-0.59
CN(C(=O)c1cc(-c2ccc3c(c2)OCO3)on1)c1ccccc1	1.16	1.27
Cc1csc2ncc(C(=O)NCCC(c3ccccc3)c3ccccc3)c(=O)n12	1	-0.00534
CC(C(=O)NCc1ccc2c(c1)OCO2)n1ncc2ccccc21 (configuration not stated)	0.862	-2.59
CCc1cccc(NC(=O)CN2C(=O)CSc3ncccc32)c1	0.991	-0.0236

Exported with two lines to a compound: part of the list above.
Order of values: CBX7 AlphaScr | CBX7 AlphaScr z-score
COC(=O)c1cc2ccsc2n1CC(=O)Nc1cc(OC)cc(OC)c1
→ 0.931 | -2.03
O=C(O)CNc1ncnc2ccccc12
→ 0.986 | -0.276
O=C(Nc1ccc(-c2nc3ccccc3s2)cc1)c1ccccc1
→ 0.99 | -0.108
O=C1c2[nH]nc(-c3ccccc3)c2C(c2ccc3c(c2)OCO3)N1c1ccccc1 (configuration not stated)
→ 0.899 | -5.22
FC(F)(F)c1cc(-c2cccs2)nc(-n2cnc3ccccc32)n1
→ 0.98 | -0.59
CCOC(=O)c1c(NC(=O)c2cc(Cl)ccc2OC)sc2c1CCCCC2
→ 1.04 | 0.607
Cc1cccc(OCc2nc(-c3cccnc3)no2)c1C
→ 1.03 | 0.735

Next part.
SMILES	CBX7 AlphaScr	CBX7 AlphaScr z-score
O=C(CN1C(=O)COc2ccccc21)NCCN1CCN(c2ccccc2F)CC1	0.99	-0.319
CCN(CC)S(=O)(=O)c1ccc2oc(C(=O)Nc3cccc(Cl)c3C)c(C)c2c1	1.06	2.24
O=C(Nc1ccc(-c2nc3ncccc3o2)cc1)c1ccccc1Cl	0.8	-2.04
Cc1ccc2c(c1)c1c3n2CCN(CC(O)COc2ccccc2C)C3CCC1 (configuration not stated)	0.994&0.9	-0.107&-4.44
Cc1ccc(S(=O)(=O)Nc2ccc(-c3csc(-c4ccccc4)n3)cc2)cc1	0.91	-3.71
Cc1ccc2nc(-c3ccc(S(=O)(=O)N(C)C)cc3)cn2c1	0.999	-0.044
COc1ccc(OC)c(NC(=O)COc2ccccc2C(C)C)c1	1.34	0.77
Clc1ccccc1Cc1noc(/C=C/c2ccc(Br)cc2)n1	1.37	3.61
COc1ccccc1Oc1ncnc2scc(-c3ccc(Cl)cc3)c12	1.06	0.128
Cc1sc2nc(Cc3ccccc3)nc(NCCC3=CCCCC3)c2c1C	1.1	2.74
CC1CCN(c2c(NCc3ccc(C(=O)N4CCN(C5CCCCC5)CC4)cc3)c(=O)c2=O)CC1	0.924	-1.08
CCCCCCCCCCCCNC(=O)C(=O)Nc1nccs1	0.868	-2.09
CCCOc1cccc(C(=O)N(Cc2cccc(Cl)c2)C2CCS(=O)(=O)C2)c1 (configuration not stated)	0.711	-0.289
COc1cc(Nc2nc(-c3ccc(OC)c(OC)c3)nc3ccccc23)cc(OC)c1	1.09	3.71
Cc1ccc(S(=O)(=O)c2cn(CC(=O)Nc3ccc(Cl)cc3)c3ccccc3c2=O)cc1	1.06	0.885
O=C(C1CCC1)N1CCc2cc(S(=O)(=O)Nc3cccc(C(F)(F)F)c3)ccc21	0.992	-0.0308
CCOc1cc2c(cc1OCC)C(c1cccc(F)c1F)NCC2 (configuration not stated)	0.94	-1.02
CCCCCc1ccc(-c2ccc(-c3noc(-c4c(-c5ccccc5Cl)noc4C)n3)cc2)cc1	0.87	-1.98
COc1ccc(N2C(=O)CC(Nc3ccc(O)cc3)C2=O)cc1 (configuration not stated)	0.996	-0.221
Cc1cc(-c2csc(Nc3cccc(Cl)c3)n2)ccc1F	0.849	-2.92
COc1ccc(C(=O)N(Cc2nc(-c3ccccc3)no2)C(C)C)cc1OC	0.98	-0.127
Cc1[nH]c2ccc(OC(F)(F)F)cc2c1CCNC(=O)c1cc(F)c(F)cc1Cl	0.787	-3.87
Cc1ccc(-c2nc(C#N)c(NC3CCCCC3)o2)cc1	1.06	0.0737
Cc1ccc(CSc2oc(-c3cccs3)nc2S(=O)(=O)c2ccc(F)cc2)cc1	0.915	-0.148
CCOc1ccc(NC(=O)Cc2c(C(=O)O)[nH]c3ccc(Cl)cc23)cc1	1.03	0.267

The closing 3 compounds of the section before come first, to join the parts.
SMILES	CBX7 AlphaScr	CBX7 AlphaScr z-score
Cc1ccc(-c2nc(C#N)c(NC3CCCCC3)o2)cc1	1.06	0.0737
Cc1ccc(CSc2oc(-c3cccs3)nc2S(=O)(=O)c2ccc(F)cc2)cc1	0.915	-0.148
CCOc1ccc(NC(=O)Cc2c(C(=O)O)[nH]c3ccc(Cl)cc23)cc1	1.03	0.267
COc1cccc(CN2CCN(Cc3ccc(F)cc3)CC2)c1OC	0.913	-1.48
Cc1onc(-c2ccccc2Cl)c1C(=O)Nc1ccc(Cc2ccncc2)cc1	0.815&1.01	-4.6&0.158
Cc1ccccc1NC(=O)Cn1cc(S(=O)(=O)c2ccccc2)c(=O)c2ccccc21	0.89	-1.8
Cc1ccc(-c2noc(CCC(=O)NCC3(c4ccccc4)CCCC3)n2)cc1	1.03	0.536
COc1ccc(CNC(=O)c2cc(-c3ccc(OC)cc3)on2)cc1	1.4	1.4
Cn1c(=O)[nH]c(=O)c2c1nc(CN1CCN(Cc3ccccc3)CC1)n2CC(N)=O	1.02	0.704
Cc1ccc(Nc2nc3nonc3nc2NCCO)cc1	0.936	-0.625
Cc1ccc(NC(=O)c2cc3c(s2)-c2c(C)cccc2OC3)c(Br)c1	1.2	6.93
CC1CCN(S(=O)(=O)c2ccc3[nH]c(=O)cc(C(=O)NCc4ccccc4Cl)c3c2)CC1	0.972	-0.276
CCn1c(CCNC(=O)c2cccc(C)c2)nc2ccccc21	0.801	-3.05
Cc1c(C(=O)Nc2ccc(Oc3ccccc3)cc2)sc2ncn(CC(=O)N3CCOCC3)c(=O)c12	0.968	-0.214
CC(C)c1ccc(Nc2c(-c3ccsc3)nc3cnccn23)cc1	1.44	4.22
Cc1nn(-c2ccccc2)c2sc(C(=O)NCc3cccnc3)cc12	1.07	2.43
C=CCNC(=O)C1CCN(c2nc3ccc(CC)cc3s2)CC1	1.09	2.07
Cc1nc(SCC(=O)Nc2c(Cl)cccc2Cl)c2c3c(sc2n1)CCC3	1.03	0.0333
CCOC(=O)c1c(C)n(-c2ccc(Cl)cc2)c2cc(OC)ccc12	1.08	2.18
CCCCCNC(=O)c1ccc2c(c1)nc(C)n2-c1ccc(OC)cc1	0.876	-2.15
COc1ccc(-c2cn3c(C)c(C(=O)Nc4ccccc4OC)sc3n2)cc1	0.962	-0.735
N#Cc1c(NC(=O)c2cc(-c3ccc(Cl)cc3)on2)sc2c1CCCC2	1.01	0.0295
COc1ccc(NCc2nnc3n2CCCCC3)cc1	0.959	-0.801
Cc1ccccc1-c1nc(CN2CCCC(C(=O)NCCc3ccc(Cl)cc3)C2)c(C)o1 (configuration not stated)	1.05	0.608
CCN(CC)CCNC(=O)Cn1ncc2ccsc2c1=O	1.06	1.7
COC(CN(C)S(=O)(=O)c1ccc2c(c1)CC(C)N2C(C)=O)OC (configuration not stated)	1.03	1.41
COc1cccc(NS(=O)(=O)c2cc(C(=O)O)ccc2NCc2ccc(F)cc2)c1	1.01	0.141
COc1cccc(NC2c3ccccc3C(=O)N2c2ccc(Cl)cn2)c1 (configuration not stated)	1.11	1.56

Other compounds
SMILES	CBX7 AlphaScr	CBX7 AlphaScr z-score
Cc1ccc(-n2ncc(C(=O)NC3CCCC3)c2C2CCN(C(=O)OC(C)(C)C)CC2)cc1C	1.04	0.85
CCn1cc(C(=O)Nc2cccc(Cl)c2)c2cc(OC)c(OC)cc2c1=O	0.994	-0.147
CCOC(=O)c1nnn(-c2nonc2N)c1CN1CCCCC1C (configuration not stated)	0.993	-0.0745
CC(C)NC(=O)c1cc(=O)[nH]c2ccc(S(=O)(=O)N3CCCCC3C)cc12 (configuration not stated)	0.94	-1.8
CCOc1ccc(S(=O)(=O)NCCc2c(C)[nH]c3ccc(OC(F)(F)F)cc23)cc1	0.573	-0.425
CCOc1ccc(C(=O)N2CC(=O)Nc3ccc(F)cc3C2c2ccc(F)cc2)cc1OCC (configuration not stated)	0.932	-1.72
Cc1cc(Cl)ccc1OCc1nc(-c2ccncc2)no1	1.02	0.0271
Fc1ccc(-c2nc3cc(F)c(Cl)cc3nc2-c2ccc(F)cc2)cc1	1.43	2.82
COc1ccc(Cl)cc1N(C)C(=O)c1cc2c(s1)-c1ccccc1OC2	1.15	7.07
CCCCN(CCCC)C(=O)c1c[nH]c2ccc(S(=O)(=O)Nc3ccccc3C)cc2c1=O	0.727	-1.79
CC(C)c1ccc(NC(=O)CN(C)S(=O)(=O)c2ccc3c(c2)CCC(=O)N3)cc1	0.938	-1.41
CCCCNC(=O)CCn1nc(-c2ccccc2)ccc1=O	1.05	1.63
CC(C)Cc1cc(C(=O)NCc2ccccc2)no1	1.01	0.176
CCCN(CCC)S(=O)(=O)c1ccc2c(c1)CCN2C(=O)CC	0.824	-0.712
CCSc1nnc(NC(=O)c2ccc(OC)c(OC)c2)s1	0.974	-0.578
O=C(CN1CCCCC1)Nc1c2c(nc3ccccc13)N(c1ccccc1)CC2	0.867	-2.13
CCOC(=O)c1ccccc1NC(=O)c1c(-c2c(Cl)cccc2Cl)noc1C	0.913	-0.544
CCN1C(=O)c2ccccc2Sc2ccc(C(=O)NCCc3ccc(Cl)cc3)cc21	0.83	-3.08
CC(C)(C)c1ccc(-c2nnc(NC(=O)Nc3cccc(Cl)c3)s2)cc1	0.98	-0.896
Cc1cc(C)n2ncc(-c3cccc(Br)c3)c2n1	1.57	17.2
Cc1ccc(-c2noc(CCC(=O)N3CCCCC3)n2)cc1	1.24	3.61
Cc1ccc(-c2cn(-c3cccc(Cl)c3)c(S(=O)(=O)CC(=O)Nc3cccc(C)c3)n2)cc1	0.726	-0.476
COc1ccc(-c2nnc(NC(=O)Nc3ccc(Cl)cc3)s2)cc1	1.12	2.1
O=C(NCCc1c[nH]c2ccccc12)C(=O)NCc1ccc(Cl)cc1	0.875	-1.35
CCC(C)Nc1nc(-c2ccc(C)cc2)nc2ccccc12 (configuration not stated)	1.08	3.68

Other entries:
SMILES	CBX7 AlphaScr	CBX7 AlphaScr z-score
CCCCNC(=O)C1C2C=CC3(CN(Cc4ccc(C)cc4)C(=O)C13)O2 (configuration not stated)	1.11	1.67
COc1ccc(-c2nnc(Nc3ccc(S(=O)(=O)Nc4nccs4)cc3)c3ccccc23)cc1	0.984	-0.437
O=C(Nc1cccc(C(F)(F)F)c1)Nc1cccs1	0.954	-2.04
CC(C)c1ccc(C(=O)CSc2n[nH]c(-c3ccncc3)n2)cc1	0.801	-0.404
COc1ccc(N2CCN(C(c3cccs3)C(C)NC(=O)c3ccncc3)CC2)cc1 (configuration not stated)	0.92	-1.94
Cc1onc(-c2ccccc2Cl)c1C(=O)Nc1ccc(F)cc1F	0.988	-0.0765
COc1ccc(-c2cc(C(=O)N3CCC(C)CC3)no2)cc1	1.42	1.46
CCN1CCN(c2ccc(NC(=O)c3cccc4c3C(=O)N(Cc3cccnc3)C4)cc2)CC1	1.07	0.872
O=C(CCn1nc(-c2ccc(Cl)cc2)ccc1=O)N1CCOCC1	1.05	0.955
Cn1c2ccccc2c2c(C(=O)NCCCN3CCCC3=O)cn(C3CCCCC3)c(=O)c21	0.996	-0.0997
CC(=O)N1CCc2cc(S(=O)(=O)NC(CC(C)C)C(=O)NC3CCCCC3)ccc21 (configuration not stated)	0.953	-0.769
COc1ccc(OC)c(C2C=C(Nc3ccccc3)C(=O)N2c2ccccc2)c1 (configuration not stated)	0.915	-2.36
COCCNC(=O)c1cc(-c2ccc(OC)c(OC)c2)on1	0.944	-0.857
N#Cc1ccccc1NC(=O)c1cnc2sccn2c1=O	0.995	-0.0842
COc1ccc(-c2noc(Cc3ccc(Cl)cc3)n2)cc1	1.25	8.83
COc1ccccc1CNC(=O)CCNS(=O)(=O)c1ccc2c(c1)CCN2C(C)=O	0.969	-1.26
c1ccc(-c2nnc(OCC3CCCO3)c3ccccc23)cc1 (configuration not stated)	1.11	0.392
